Screening data as filed in PubChem.
ClpP mod – qHTS Assay for Activators of ClpP; purified B. subtilis ClpP, FRET peptide cleavage, 20 min; 340,000 compounds, 1.9% hits; Potency, µM (top dose mostly 57.5 µM), inactives show at the top dose activity change, negative = active; AID 651965, 2013; active = well fitted falling curve with a large enough effect; inconclusive = small, poorly fitted or top-dose-only effect; inactive = no such curve, though single readings can be large or run the other way; note: potency is the fitted concentration of half-maximal effect; the source files actives as falling curves though it sought activators and does not explain the sign; nearly all actives have a fitted effect of over 65% in size; many hits overshoot -100%
Target sequence (P80244 whole entry, looked up): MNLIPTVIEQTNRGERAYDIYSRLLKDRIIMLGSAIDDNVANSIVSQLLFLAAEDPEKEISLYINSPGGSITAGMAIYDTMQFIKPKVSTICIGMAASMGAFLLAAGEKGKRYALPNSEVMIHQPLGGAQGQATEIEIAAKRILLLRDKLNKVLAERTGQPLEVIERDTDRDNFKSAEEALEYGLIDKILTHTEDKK
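Purified B. subtilis ClpP, 10 microg/mL final in Tris/HCl pH8 with KCl, BSA, glycerol and Tween-20, cleaved an Abz/nitrotyrosine-quenched decapeptide. Fluorescence (ex 320, em 430) was read at 0 and 20 min at room temperature. Delta was normalized to 5.8 microM ADEP and DMSO/no-enzyme controls.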
gsp antag – gsp mutant antagonism. Potency, µM (highest dose often 76.9 µM), without a hit: at the top dose activity change, negative = inhibition, actives largely listed as inhibitors. AID 624288. gsp-mutant cells, cAMP HTRF, 30 min; control for the full effect not named in the record. 340,000 compounds, 0.4% hits; active = falling curve of any shape with a large fitted effect; inconclusive = falling curve, mostly with a smaller effect; inactive = flat or rising curve; cell line not stated here;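 note: intracellular cAMP measured with PDE inhibitor Ro 20-1724 present during compound exposure; potency is the fitted concentration of half-maximal effect; % is set by controls: 0 for no effect and ±100 for the full control effect; nearly all actives have a fitted effect of over 65% in size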
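G418-selected cells were plated in DMEM/10% FBS for 16-24 h at 37C, then treated with compounds plus the PDE inhibitor […] (300 uM solution added) for 30 min at 37C. Intracellular cAMP was measured by HTRF after 30 min lysis at room temperature.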
TRPML1 agonist – human mucolipin-1 channel agonism | Q9GZU1 | TRPML1-expressing cells, Ca2+ dye fluorescence, FDSS; host cell line not named in the record; reference of the full effect not given here | activation, % (no concentration beside the values) | 410,000 compounds, 0.12% hits | AID 624414; in the data active = activation above about 50%; inconclusive = about 30% to 50%; inactive = below about 30%; note: 0% is about no effect; the text of the record puts the active cut at 80%
Target sequence (Q9GZU1 whole entry, looked up): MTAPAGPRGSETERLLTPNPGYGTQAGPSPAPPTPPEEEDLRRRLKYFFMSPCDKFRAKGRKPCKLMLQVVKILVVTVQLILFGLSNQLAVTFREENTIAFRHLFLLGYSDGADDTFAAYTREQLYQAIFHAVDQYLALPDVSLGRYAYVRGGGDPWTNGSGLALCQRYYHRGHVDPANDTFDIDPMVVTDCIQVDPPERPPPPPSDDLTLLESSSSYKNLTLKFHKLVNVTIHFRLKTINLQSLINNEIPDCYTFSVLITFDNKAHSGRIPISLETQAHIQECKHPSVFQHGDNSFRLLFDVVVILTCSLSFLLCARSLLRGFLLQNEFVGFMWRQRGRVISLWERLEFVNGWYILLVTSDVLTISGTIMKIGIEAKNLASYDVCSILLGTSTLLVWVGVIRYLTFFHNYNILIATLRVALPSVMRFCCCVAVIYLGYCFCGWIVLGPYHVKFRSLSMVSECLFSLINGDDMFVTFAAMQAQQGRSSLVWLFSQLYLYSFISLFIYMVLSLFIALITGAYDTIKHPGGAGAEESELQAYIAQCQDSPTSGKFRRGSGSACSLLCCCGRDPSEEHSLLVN
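Calcium fluorescence on an FDSS kinetic reader gave the read-out. Tet-induced TRPML1-DL cells were plated overnight, dye-loaded (Ca8 with quencher, 45-90 min, room temperature, dark), then read 110 s after compound addition, and again 110 s after 4uM final 54-4 (EC80).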
TRPML1 inh – human mucolipin-1 channel inhibition; 390,000 compounds, 0.02% hits; activity change, negative = inhibition, % (test concentration not listed); TRPML1-inducible cells, Ca2+ dye fluorescence, FDSS; stronger effect = lower value; inhibition of EC80 agonist-evoked calcium signal; Q9GZU1; in the data active means activity change below about -50%; inconclusive means about -30% to -50%; inactive means above about -30%;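 note: stimulus is agonist 54-4 at its EC80 concentration; % is set by controls: 0 for no effect and ±100 for the full control effect; compound concentration not given in the record; the text of the record puts the active cut at -80%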
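Tet-induced TRPML1-DL cells loaded with Ca8 no-wash calcium dye were read kinetically on FDSS. Compound addition was followed by EC80 agonist 54-4 (4 uM final); inhibition was read over 110 s.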
Menin-MLL FL inh – menin-MLL binding inhibition, fluorescein peptide. Fluorescence polarization, fluorescein-MLL peptide displacement from menin. FP activity change, % at 61.4 µM. 290,000 tested, under 10 active. AID 1766; inconclusive = falling polarisation curve, or a change in total fluorescence; inactive = total fluorescence flat and polarisation flat or rising; no compound was filed as active; the % refers to the polarisation; negative = inhibition;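 note: % of control where 0% means no effect; inhibitors lower the polarisation; unlabelled MLL peptide was the positive control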
gsp ag – activates gsp, the McCune-Albright syndrome mutation | Potency, µM (series often up to 76.9 µM), for the others: at the top dose activation (cAMP increase), actives largely listed as activators | gsp mutant cells, cAMP HTRF, 30 min; control for the full effect not named in the record | 340,000 compounds, 0.13% hits; active = well fitted activation curve with a large enough effect; inconclusive = small, poorly fitted or top-dose-only effect, or another doubt; inactive = no such curve, though single readings can be large or run the other way; cell line not stated here;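 note: phosphodiesterase inhibitor Ro 20-1724 added with compounds to block cAMP breakdown; potency is the fitted concentration of half-maximal effect; nearly all actives have a fitted effect of over 60% in size; about a fifth of the inactives were tested at one dose only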
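Cells stably selected in G418 were plated at 2000/well, grown 16-24 hr, then given compounds in DMSO with the PDE inhibitor […] (300 uM solution added) for 30 min at 37C; cAMP was read by HTRF.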
* marks the source's active call; other numbers are inactive results; ? = inconclusive; . = no result given; [ ] = another dose, or the depositor's remark.

item	canonical_smiles	ClpP mod	gsp antag	TRPML1 agonist	TRPML1 inh	Menin-MLL FL inh	gsp ag
1	CC1(C)CC(=O)C(C2C3=C(CC(C)(C)CC3=O)OC3=C2C(=O)CC(C)(C)C3)=C(O)C1	-2.5%	8%	-0.5	7	2.8	-2%[15.4 µM]
2	COc1ccc(-c2n[nH]c(=S)n2-c2ccccc2C)cc1OC	.	0%	-0.3	-8	0.6	1%
3	COc1ccc(CN(C(=O)/C=C/c2ccco2)C2CCS(=O)(=O)C2)cc1OC (stereo unspecified)	-1.0%	0%	0.5	3	?	-12%
4	COc1ccc(OCC(=O)Nc2nnc(S(=O)(=O)N3CCc4ccccc43)s2)cc1	2.1%	.	1.0	15	.	.
5	Cc1ccc(C)c(C(=O)COC(=O)c2c(-c3ccccc3)noc2C)c1	-0.7%	0%	4.7	5	.	10%[15.4 µM]
6	COc1ccc(OC)c(NC(=O)c2cc3cccc(OC)c3oc2=O)c1	0.4%	.	0.0	7	.	.
7	CCC(C)C(=O)Nc1ccc(S(=O)(=O)Nc2nccs2)cc1 (stereo unspecified)	0.1%	6%	-0.8	1	0.8	-25%
8	COCCCNC(=O)Cc1c(C)c2c(cc(C)c3c(C)c(C)oc32)oc1=O	.	5%	1.4	4	-0.3	?
9	CCS(=O)(=O)Nc1ccc(C2=NN(C(=O)c3ccco3)C(c3cccc(F)c3)C2)cc1 (stereo unspecified)	-13%	22µM*	2.0	12	3.6	-17%
10	COc1ccc(C(=O)c2cnc(/N=C/N(C)C)s2)cc1	-8.7%	-2%	0.8	-9	2.3	17%
11	COc1ccc(NC(=O)c2cccnc2Cl)c(S(=O)(=O)N2CCOCC2)c1	0.0%	4%	0.0	-3	0.4	-14%
12	O=S(=O)(NCCc1cn2ccccc2n1)c1ccc(-c2ccccc2)cc1	-4.7%	-15%	-0.3	-6	3.9	11%
13	O=C(NC(=O)c1c(F)cccc1F)O/N=C1\CCCc2occc21	-2.1%	-13%	0.9	-6	3.2	22%
14	c1ccc2c(-c3nn[nH]n3)cccc2c1	-5.0%	-10%	-0.4	-3	3.4	-2%
15	O=C1NC(=O)C(CC(=O)N(Cc2cccs2)C2(C(=O)NC3CCCCC3)CCCCC2)N1 (stereo unspecified)	0.7%	5%	-0.1	-2	-0.3	14%
16	Cc1cccc(NC(=O)CSCC(=O)N(C)Cc2ccc(Cl)c(Cl)c2)c1	-2.1%	10%	4.2	41	.	-7%
17	O=C(COC(=O)c1ccccc1O)Nc1cccnc1Cl	9.7%	5%	0.6	-7	2.0	18%
18	COC(=O)NNC(=O)COc1ccc2ccccc2c1Br	25µM*	17%	-0.8	-1	-1.5	?
19	CCOc1cc(N2CCOCC2)c(OCC)cc1NC(=O)C1=COCCO1	0.3%	-7%	-0.6	-7	.	-20%
20	CCc1nc2ccccc2n2c(-c3ccccc3)c3c(=O)n(C)c(=O)n(C)c3c12	1.0%	.	-0.8	1	.	.
21	O=[N+]([O-])c1cccc(-c2ccc3nnc(SCc4cccnc4)n3n2)c1	-2.5%	4%	.	.	.	10%
22	Nc1c2nc(-c3ccccc3)[nH]c(=O)c2nc(=O)n1-c1ccccc1	3.3%	1%	-0.1	-11	12	-13%
23	C/C(=N\Nc1ccc2nncn2n1)c1cccs1	.	12%	0.4	-15	-1.7	-2%[15.4 µM]
24	COc1cc(/C=C2\C(=N)N3N=C(C)SC3=NC2=O)cc(OC)c1OCCOc1ccccc1C	-11%	-30%	.	.	8.7	-8%
25	CC(=O)c1ccc(OCC(O)CN2CCN(S(=O)(=O)c3c(C)cc(C)cc3C)CC2)cc1 (stereo unspecified)	20µM*	0%	0.4	25	2.3	-5%[15.4 µM]
26	O=C(NNc1ccccc1)C(CCO)C(=O)NNc1ccccc1	.	0%	0.9	-7	0.8	16%
27	COc1ccc(CNC(=O)c2ccc3nc(-c4ccc(F)cc4)c(-c4ccc(F)cc4)nc3c2)cc1	-2.3%	.	9.4	-12	.	.
28	COC(=O)c1sc(-c2ccc(Cl)cc2)cc1NC(=O)/C=C/C(=O)O	.	?	-0.3	16	-0.1	?
29	O=C(Cc1ccc(Br)cc1)NCCCn1ccnc1	2.0%	5%	0.7	19	-0.3	8%[15.4 µM]
30	Cc1ccc(-n2c(CCc3nc4ccccc4[nH]3)n[nH]c2=S)cc1	-0.9%	-4%	-1.3	-16	-7.9	-17%[15.4 µM]
31	COc1cc(NC(=O)Cn2c(=O)n(Cc3ccccc3OC)c(=O)c3cccnc32)cc(OC)c1	-26%	.	1.8	-15	.	.
32	Cc1nn(C(C)C(=O)NC2C(=O)N3C(C(=O)O)=C(CSc4nnnn4C)CSC23)cc1Cl (stereo unspecified)	-0.3%	9%	0.5	3	9.3	-105%[inhibitor]
33	CCOC(=O)N1CCC(NC(=O)C2CCN(S(=O)(=O)N3CCCC3)CC2)CC1	-1.0%	6%	0.2	5	-0.6	-3%
34	Oc1ccc(C(=S)N2CCCC2)cc1	1.3%	3%	-0.7	-6	-3.7	0%
35	O=C1CC2(CCCCC2)Oc2ccc(OCC(=O)N3CCOCC3)cc21	10µM*	-15%	2.7	50	0.5	27%
36	COc1cc(C(=O)N2CCN(C(=O)c3cccc4ccccc34)CC2)cc(OC)c1OC	.	-15%	0.3	-1	.	15%[15.4 µM]
37	CC1(C)C(=O)Nc2ccccc2N1C(=O)COc1cccnc1[N+](=O)[O-]	.	-5%	0.4	-2	-0.9	22%
38	O=C(c1ccc2c(c1)N(Cc1ccc(Cl)cc1)C(=O)c1ccccc1S2=O)N1CCN(c2ccccc2F)CC1 (stereo unspecified)	0.1%	.	-0.4	-7	.	.
39	COc1cc(C2Nc3cccc4cccc(c34)N2)cc(OC)c1OC(C)=O	-3.6%	-6%	-0.6	19	?	7%
40	O=C(Cn1cccc(C(F)(F)F)c1=O)c1ccc(Cl)cc1	0.0%	11%	-0.2	1	1.6	7%[15.4 µM]
41	Cc1cc(C)c[n+](-c2nc3ccccc3nc2[N-]S(=O)(=O)c2ccc(Br)s2)c1	.	-2%	1.5	-11	?	-13%
42	CCOc1ccc(/C=C/C(=O)C(C(N)=O)=C2SCCS2)cc1	2.5%	-23%	-0.6	17	4.1	-13%
43	Cc1ccc(CN2CCN(CC(=O)N/N=C/c3ccccc3F)CC2)cc1	0.0%	4%	0.8	-19	2.2	13%
44	COc1ccc2nc(SC(C)C(=O)NC3CCCC3)[nH]c2c1 (stereo unspecified)	.	-1%	-1.0	-4	.	-15%[15.4 µM]
45	CCCCNC(=O)C1CCN(c2nc3ccccc3nc2C(F)(F)F)CC1	-4.9%	.	-0.1	-10	.	.
46	CC(=O)c1sc2nc(SCC(=O)NCCc3ccccc3)[nH]c(=O)c2c1C	4.0%	13%	0.4	-5	.	?
47	COc1ccc(-c2nnc3ccc(SCC(=O)N4CCN(c5ccccc5)CC4)nn23)cc1	-0.7%	4%	-0.6	-6	.	0%
48	CC(C)NC(=O)CCSc1nc(-c2ccc3c(c2)OCO3)cc(C(F)(F)F)n1	4.1%	.	-1.0	-7	.	.
49	CCC(C)NC(=O)CCCCCn1c(=O)[nH]c2cc(OC)c(OC)cc2c1=O (stereo unspecified)	28µM*	-3%	0.0	-2	-0.1	7%
50	COc1ccc(C(=O)Nc2cccnc2)cc1S(=O)(=O)N1CCOCC1	1.3%	7%	-0.1	-5	2.4	?
51	CC(Oc1ccccc1)C(=O)NNC(=O)c1cccs1 (stereo unspecified)	.	1%	0.1	-8	2.5	-12%
52	CCN(CC)C(=S)Nc1ccc2nc3n(c(=O)c2c1)CCCCC3	0.3%	12%	-0.2	-3	-1.5	6%[15.4 µM]
53	Cc1cc(NC(=O)c2ccc(Cl)c([N+](=O)[O-])c2)no1	.	?	0.3	6	-1.1	-22%[15.4 µM]
54	CN(C(=O)COc1ccccc1)C1CCS(=O)(=O)C1 (stereo unspecified)	1.6%	13%	4.7	7	3.5	?
55	CCC(c1nnc(SCC(=O)N2CC(=O)Nc3ccccc32)n1Cc1ccccc1)N(C)C (stereo unspecified)	-5.0%	9%	0.2	4	-1.8	-3%
56	Nn1c(C2COc3ccccc3O2)n[nH]c1=S (stereo unspecified)	1.9%	10%	-0.9	-9	1.8	-2%
57	COCCCNC(=O)c1c(NC(=O)C2COc3ccccc3O2)sc2c1CCCC2 (stereo unspecified)	-3.7%	17%	-0.5	5	1.0	-21%
58	Cc1[nH]c(SCC(=O)Nc2cc(S(C)(=O)=O)ccc2Cl)nc1Cc1ccccc1	-0.3%	-15%	5.0	-10	.	-7%
59	CCOC(=O)CSc1nc2ccc(NC(=O)c3ccccc3F)cc2s1	0.0%	.	0.5	15	.	.
60	O=C(COc1ccccc1Cl)NCc1ccccc1	5.4%	17%	-0.5	25	-0.3	6%[15.4 µM]

(next part)
item	canonical_smiles	ClpP mod	gsp antag	TRPML1 agonist	TRPML1 inh	Menin-MLL FL inh	gsp ag
61	COc1cccc(C(=O)N2c3nc(-c4ccco4)nn3C3(CCCCC3)[C@@H]3CCCC[C@@H]32)c1	0.0%	.	4.7	52	.	.
62	CCCn1c(CC)nc([N+](=O)[O-])c1S(=O)(=O)c1ccccc1	0.4%	-11%	0.3	0	-1.8	24%
63	CC(C)(C)OC(=O)NCCCCCc1nnc(SCc2ccc(F)cc2)o1	.	-8%	1.0	6	0.5	-3%[15.4 µM]
64	CCCCOP(=O)(OCCCC)C(Nc1ccccc1)c1ccc2c(c1)OCO2 (stereo unspecified)	1.2%	-5%	0.3	38	7.6	-13%
65	O=C(O)c1ccc(Cl)c(N2C(=O)Nc3ccccc3N2O)c1	0.4%	-1%	0.7	4	2.0	-71%[inhibitor]
66	Cc1ccc2[nH]c(=O)c(CN3CCCCC3)c(-c3ccccc3)c2c1	.	-1%	-0.3	-7	-2.0	-41%[inhibitor]
67	Nc1nc(=S)[nH]c2c1C1(CCCCC1)Cc1ccccc1-2	-5.2%	5%	0.3	27	1.9	?
68	Cc1ccc2cc(CN(CC3CCCO3)C(=S)NCc3ccco3)c(=O)[nH]c2c1C (stereo unspecified)	-2.8%	-7%	2.4	4	0.4	4%[15.4 µM]
69	COC(=O)c1sccc1NC(=S)N1CCN(c2cc(C)ccc2C)CC1	-5.7%	3%	0.3	22	-1.4	-11%[15.4 µM]
70	Cc1ccc(S(=O)(=O)NCC(=O)N(CCc2ccccc2)CC(=O)NCc2ccco2)cc1	-4.7%	?	1.2	-8	2.2	-24%
71	N/C(=N\OC(=O)c1cccc(Br)c1)c1ccccn1	-1.2%	-6%	-0.6	26	.	26%

Random draw from the library. Share with any hit: about 2.1%.
